# High-throughput results from PubChem BioAssay.
# Mtb growth = Mycobacterium tuberculosis H37Rv growth inhibition, cell based, confirmatory dose response (AID 1949); hit rate 1.6% among 100,000; most inactive calls were filed without a number and no value below 0 was filed; M. tuberculosis H37Rv growth inhibition; one-dose inhibition, % at 10 µg/mL; IC50 in µg/mL for titrated hits;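 active = confirmed in a dose series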;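 note: bacteria grown 7 days with compound before Alamar blue readout; 0% = untreated bacteria and 100% = reference antibiotic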
# The depositor's hits bear a star; i = inactive. These rows are one share of the data; the hit share may differ from the screen's.
cpd | canonical_smiles | Mtb growth
1 | O=c1cc(-c2ccccc2)oc2c(CN3CCOCC3)c(O)c(CN3CCOCC3)c(O)c12 | 5%
2 | CN(C)CCCOc1ccc(C(C)(C)C)cc1 | i
3 | N#Cc1cc2c(nc1SCC(=O)N1CCOCC1)CCCC2 | i
4 | Nc1ccc(N2CCOCC2)cc1N1CCOCC1 | i
5 | O=c1c(O)c(-c2ccc3c(c2)OCO3)oc2cc(Cl)ccc12 | i
6 | COc1ccc(N2CCN(C(=O)CN(Cc3ccccc3C)S(=O)(=O)c3ccc(Cl)cc3)CC2)cc1 | i
7 | COc1ccc(S(=O)(=O)Nc2nnc(CC(C)C)s2)cc1 | 1%

# Some of the entries so far, field by field.
5: O=c1c(O)c(-c2ccc3c(c2)OCO3)oc2cc(Cl)ccc12
  Mtb growth: i
6: COc1ccc(N2CCN(C(=O)CN(Cc3ccccc3C)S(=O)(=O)c3ccc(Cl)cc3)CC2)cc1
  Mtb growth: i
7: COc1ccc(S(=O)(=O)Nc2nnc(CC(C)C)s2)cc1
  Mtb growth: 1%
